HCMV UL50-53 inh = inhibitors of HCMV UL50-UL53 interaction, biochemical, HTRF; HCMV UL50-UL53 nuclear egress complex (human cytomegalovirus); normalized percent inhibition; inhibition, % (test concentration not listed); hit rate 0.15% among 190,000;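 active means both replicates at 50% or more, plus weaker picks with an unusually low signal ratio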;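 further: stock transfer was 100 nL into about 20 µL; 0% = negative control wells and 100% = wells with untagged competitor protein; inactives centre near -12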
Sa growth 42C = S. aureus growth inhibition at 42 and 30 °C, primary screen, LtaS inhibitor project, RN4220, two temperatures | OD600, 20 h, 42 °C; stronger effect = lower value | relative growth, % (test concentration not listed) | hit rate 0.53% among 170,000;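 active means growth at 42 °C up to 50% and 20 or more points under that at 30 °C, or under 10% at both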;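 further: 300 nL library stock went into each well; scaled to the means of positive and negative controls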
GIV-Gai inh = inhibitors of GIV peptide binding to Galpha-i3, primary screen, biochemical, fluorescence polarization, FITC-GIV GBA peptide, rat Galphai3; Guanine nucleotide-binding protein G(i) subunit alpha-3 (Rattus norvegicus), P08753; percent of control (FP), % (no concentration beside the values); 90 min; stronger effect = lower value; scaled: aluminum fluoride 0%, vehicle 100%; hit rate 0.42% among 210,000;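 active means replicate mean at 85% of control or lower, very high polarization wells dropped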;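 further: wells of about 15 µL received 100 nL stock; the first replicate is given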
Target sequence (P08753 whole entry, looked up): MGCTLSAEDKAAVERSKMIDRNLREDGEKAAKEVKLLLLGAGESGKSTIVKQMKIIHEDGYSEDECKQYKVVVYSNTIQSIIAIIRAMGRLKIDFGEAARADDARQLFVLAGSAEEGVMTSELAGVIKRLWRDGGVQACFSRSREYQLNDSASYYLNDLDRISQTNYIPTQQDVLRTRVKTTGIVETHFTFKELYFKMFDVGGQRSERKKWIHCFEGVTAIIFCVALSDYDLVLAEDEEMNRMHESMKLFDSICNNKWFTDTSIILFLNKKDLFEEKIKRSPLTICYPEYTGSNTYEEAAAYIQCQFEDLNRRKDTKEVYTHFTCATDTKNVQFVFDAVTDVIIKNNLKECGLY
Sa growth 42C second temp = recorded beside Sa growth 42C, whose call it bears; relative growth, %; measured here: growth at 30 °C;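 optical density after 20 h as mean of two plates; 100% = untreated growth and lower means inhibition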
* marks the source's active call; other numbers are inactive results.

Screening COc1cccc(C2CC(=O)Nc3c2c(=O)n(C)c2ncnn32)c1OC (centres undefined) returned HCMV UL50-53 inh 5, Sa growth 42C 99, GIV-Gai inh 106 and Sa growth 42C second temp 98.
For Cc1ccc(-n2ncc3c(NCCCn4ccnc4)ncnc32)cc1Cl the results were Sa growth 42C 121, GIV-Gai inh 104 and Sa growth 42C second temp 29.
Screening O=C(OCc1c(Cl)cccc1Cl)c1ccccn1 returned HCMV UL50-53 inh -37, Sa growth 42C 87 and Sa growth 42C second temp 87.
Screening O=C1CC(c2ccccc2)CN1Cc1ccccc1 (centres undefined) returned Sa growth 42C 99, GIV-Gai inh 103 and Sa growth 42C second temp 88.
For Cc1ccnc(SCC(=O)N2N=CCC2c2ccccc2)n1 (centres undefined) the results were Sa growth 42C 86, GIV-Gai inh 115 and Sa growth 42C second temp 90.
`CCn1c(=O)[nH]c2cc(C(=O)O)ccc2c1=O` gave HCMV UL50-53 inh 1, Sa growth 42C 83, GIV-Gai inh 99 and Sa growth 42C second temp 93.
For O=C(OC(Cc1ccccc1)C(F)(F)F)c1ccc(Cl)cc1Cl (centres undefined) the results were HCMV UL50-53 inh -34, Sa growth 42C 97, GIV-Gai inh 101 and Sa growth 42C second temp 87.
`Cc1ccc(N2CCN(C(=O)C(C)N3C(=O)c4ccccc4C3=O)CC2)cc1` (centres undefined) gave HCMV UL50-53 inh -7, Sa growth 42C 89, GIV-Gai inh 99 and Sa growth 42C second temp 95.
COc1ccc(N2CCN(C(=O)c3[nH]c(C)c(S(=O)(=O)N4CCC(C)CC4)c3C)CC2)cc1 was read as HCMV UL50-53 inh -32 and GIV-Gai inh 111.
Screening CCOc1ccccc1N(C)C(=O)Cn1cnc2onc(-c3ccc(F)cc3)c2c1=O returned Sa growth 42C 127, GIV-Gai inh 107 and Sa growth 42C second temp 93.
Screening CCc1ccc(-c2cn3nc(N4CCC(C(=O)NCc5ccc(F)cc5)CC4)sc3n2)cc1 returned HCMV UL50-53 inh 6 and GIV-Gai inh 115.
`Cc1ccc(-n2c3nc(=O)[nH]c(=O)c-3cc3c(C)nn(-c4ccccc4)c32)c(C)c1` gave HCMV UL50-53 inh -10, Sa growth 42C 105, GIV-Gai inh 101 and Sa growth 42C second temp 91.
CC(C)(C)OC(=O)N1CCC(c2c(C(=O)NCCN3CCOCC3)cnn2-c2cccc(F)c2)CC1 was read as Sa growth 42C 106, GIV-Gai inh 105 and Sa growth 42C second temp 104.
For CCc1ccc(Cn2c(CNS(=O)(=O)c3ccc4c(c3)CCCC4)nc3cccnc32)cc1 the results were Sa growth 42C 101, GIV-Gai inh 101 and Sa growth 42C second temp 87.
C=CCC(O)(CN)CC=C was read as HCMV UL50-53 inh -11, Sa growth 42C 86, GIV-Gai inh 110 and Sa growth 42C second temp 103.
Cc1ccc(-c2nc3ccccc3s2)cc1NC(=O)c1ccccc1 was read as Sa growth 42C 64, GIV-Gai inh 103 and Sa growth 42C second temp 100.
For CCN1C(=O)c2cccc3c(NC(=O)c4cc(-c5cccs5)nc5ccccc45)ccc1c23 the results were HCMV UL50-53 inh -13 and GIV-Gai inh 102.
Screening O=C(N1CCOCC1)N1CCN(S(=O)(=O)c2ccccc2)C1 returned HCMV UL50-53 inh 3, Sa growth 42C 114, GIV-Gai inh 103 and Sa growth 42C second temp 100.
Screening COc1cc(/C=C2\SC(=Nc3ccc4c(c3)OCO4)N(c3ccc4c(c3)OCO4)C2=O)ccc1O returned HCMV UL50-53 inh -16 and GIV-Gai inh 112.
COc1ccc(/C=c2\s/c(=C\C#N)n(C)c2=O)cc1 was read as HCMV UL50-53 inh -72, Sa growth 42C 92 and Sa growth 42C second temp 84.
Screening O=C(/C=C/c1ccc(OC(F)F)cc1)OC1CCCC1=O (centres undefined) returned HCMV UL50-53 inh -39, Sa growth 42C 96 and Sa growth 42C second temp 101.
CCOC(=O)c1sc(SC)c2c1CC(c1ccc(OC)cc1)CC2=O (centres undefined) was read as HCMV UL50-53 inh 29, Sa growth 42C 110, GIV-Gai inh 103 and Sa growth 42C second temp 97.
`COC(=O)c1ccc(COC(=O)CN2C(=O)C3CC=CCC3C2=O)cc1` (centres undefined) gave HCMV UL50-53 inh -3, Sa growth 42C 109 and Sa growth 42C second temp 86.
For Cc1cc(C)c2nc(N(Cc3cccnc3)C(=O)Cc3ccccc3)sc2c1 the results were Sa growth 42C 113, GIV-Gai inh 104 and Sa growth 42C second temp 85.
`Cc1ccc(C)c(CN2C(=O)c3ccccc3S(=O)(=O)c3ccc(C(=O)N4CCN(c5ccccn5)CC4)cc32)c1` gave HCMV UL50-53 inh -24, Sa growth 42C 117, GIV-Gai inh 105 and Sa growth 42C second temp 106.
`CCC1(C)N(O)C(C)C(c2ccccc2)=[N+]1[O-]` (centres undefined) gave HCMV UL50-53 inh -41, Sa growth 42C 85, GIV-Gai inh 107 and Sa growth 42C second temp 82.
`O=c1c2sc3ccccc3c2n(CCN2CCOCC2)c(=O)n1Cc1ccccn1` gave HCMV UL50-53 inh -5, Sa growth 42C 99, GIV-Gai inh 106 and Sa growth 42C second temp 93.
For CCCn1c(=O)c2ccc(C(=O)NC(C)C)cc2n2c(=O)n(C)nc12 the results were HCMV UL50-53 inh 5 and GIV-Gai inh 99.
Screening CC(=O)Nc1cc(-c2nc(-c3cc4c(C)nn(-c5ccccc5)c4s3)no2)ccc1C returned HCMV UL50-53 inh 2 and GIV-Gai inh 108.
Screening COc1cccc(-c2nnn(-c3nc(CN4CCCCC4)nc4sc5c(c34)CCCC5)n2)c1 returned HCMV UL50-53 inh 1, Sa growth 42C 112 and Sa growth 42C second temp 105.
Cc1cc(-c2ccc(S(=O)(=O)Nc3cc(Cl)ccc3C)s2)on1 was read as Sa growth 42C 109, GIV-Gai inh 97 and Sa growth 42C second temp 103.
For Cc1ccc(-n2c(SCc3nc(N)nc(N)n3)nnc2-c2ccccc2)cc1C the results were HCMV UL50-53 inh -32, Sa growth 42C 108 and Sa growth 42C second temp 100.
COc1ccc(CC(=O)NCCc2csc3nc(-c4ccccc4C)nn23)cc1 was read as HCMV UL50-53 inh -16 and GIV-Gai inh 100.
`Cn1nc(C(=O)NC2CCCCC2)c2c1-c1cc(Cl)ccc1SC2` gave HCMV UL50-53 inh -23 and GIV-Gai inh 101.
`CCCCn1c(-c2nonc2N)nc2ccccc21` gave HCMV UL50-53 inh -4, Sa growth 42C 126, GIV-Gai inh 101 and Sa growth 42C second temp 89.
Cc1ccc(/C=C/S(=O)(=O)N2CCC(C(=O)O)CC2)cc1 was read as HCMV UL50-53 inh -26, Sa growth 42C 92 and Sa growth 42C second temp 92.
For Cn1cnc(S(=O)(=O)N2CCCC(C(=O)NCc3ccccc3Cl)C2)c1 (centres undefined) the results were Sa growth 42C 115, GIV-Gai inh 110 and Sa growth 42C second temp 95.
`Cc1ccccc1C(=O)Nc1cccc(C(=O)OCc2cc(=O)n3c4c(sc3n2)CCCC4)c1` gave Sa growth 42C 106, GIV-Gai inh 106 and Sa growth 42C second temp 87.
Cc1cc(C)nc(-n2nc(C)cc2NC(=O)CN2CCCC2)n1 was read as HCMV UL50-53 inh -8, Sa growth 42C 88 and Sa growth 42C second temp 89.
For O=C(Nc1csnc1-c1c(Cl)cccc1Cl)NN1CCOCC1 the results were HCMV UL50-53 inh -28, Sa growth 42C 88, GIV-Gai inh 101 and Sa growth 42C second temp 84.
For COCCOC(=O)C1=C(C)NC2=C(C(=O)CC(c3ccccc3)C2)C1c1cc2c(cc1Br)OCO2 (centres undefined) the results were HCMV UL50-53 inh -29 and GIV-Gai inh 105.
O=C(CSc1ncc(-c2ccccc2)o1)Nc1ccc2c(c1)OCCO2 was read as HCMV UL50-53 inh -13 and GIV-Gai inh 113.
For Cn1c(-c2ccc(Br)cc2)n[nH]c1=S the results were HCMV UL50-53 inh -16, Sa growth 42C 99, GIV-Gai inh 106 and Sa growth 42C second temp 81.
Cc1ccc(C2=NNC(=S)C3=CNc4ccccc4N32)cc1 was read as HCMV UL50-53 inh -38, Sa growth 42C 105 and Sa growth 42C second temp 106.
For CC(=O)c1cccc(NS(=O)(=O)c2ccc3c(c2)NC(=O)CC(=O)N3)c1 the results were HCMV UL50-53 inh -27, Sa growth 42C 108, GIV-Gai inh 101 and Sa growth 42C second temp 87.
For COc1ccc(OCC(O)CNC(=O)c2ccc(N(C)C)cc2)cc1 (centres undefined) the results were HCMV UL50-53 inh -31, Sa growth 42C 86, GIV-Gai inh 102 and Sa growth 42C second temp 85.
COC(=O)Cn1c2ccc(C)cc2c2nc3ccccc3nc21 was read as HCMV UL50-53 inh -33, Sa growth 42C 91, GIV-Gai inh 100 and Sa growth 42C second temp 74.
O=C(Nc1cccc(Br)c1)Nc1ccc2nc3n(c(=O)c2c1)CCCC3 was read as HCMV UL50-53 inh 4 and GIV-Gai inh 95.
For CCOC(=O)c1c(S(=O)(=O)Nc2cccnc2)c(C)n(C)c1C the results were HCMV UL50-53 inh 1 and GIV-Gai inh 102.
Screening Cn1nc(C(=O)N2CCN(c3ccc(Cl)cc3)CC2)cc1C(F)(F)F returned HCMV UL50-53 inh -15 and GIV-Gai inh 98.
Screening Cc1cc2nc3c(c(C(F)(F)F)n2n1)CCCC3 returned HCMV UL50-53 inh -28, Sa growth 42C 84 and Sa growth 42C second temp 88.
`CCOCCCNC(=O)N1Cc2c(sc3c2CCCC3)-n2cccc2C1C` (centres undefined) gave HCMV UL50-53 inh -32 and GIV-Gai inh 106.
`CN(C(=O)Cn1c(=O)n(CC(=O)NCCc2ccccc2)c(=O)c2sccc21)C1CCCCC1` gave Sa growth 42C 91, GIV-Gai inh 99 and Sa growth 42C second temp 98.
`NCc1ccsc1` gave HCMV UL50-53 inh -27, Sa growth 42C 107, GIV-Gai inh 101 and Sa growth 42C second temp 83.
Cc1cccc2c(C(=O)Nc3ccc4c(c3)C(=O)N(C)C3=NCCN34)cc(-c3ccccc3)nc12 was read as HCMV UL50-53 inh 2 and GIV-Gai inh 99.
Screening COC(=O)c1cc(S(=O)(=O)NC2CCCCC2C)c[nH]1 (centres undefined) returned Sa growth 42C 93, GIV-Gai inh 105 and Sa growth 42C second temp 82.
Screening CC12CC(NC(=O)N1c1ccc(C(=O)N3CCN(Cc4ccc5c(c4)OCO5)CC3)cc1)c1cc(Cl)ccc1O2 (centres undefined) returned HCMV UL50-53 inh -3, Sa growth 42C 91, GIV-Gai inh 103 and Sa growth 42C second temp 95.
CCN1CCN(C(=O)C2CCN(c3nn4cc(-c5ccc(F)cc5)nc4s3)CC2)CC1 was read as HCMV UL50-53 inh -10 and GIV-Gai inh 103.
COc1ccc(CNC(=O)CCn2cccn2)cc1 was read as Sa growth 42C 88, GIV-Gai inh 100 and Sa growth 42C second temp 85.
Screening CCN(CC(=O)Nc1cccc(OC)c1)Cc1cc(=O)oc2cc(NC(C)=O)ccc12 returned HCMV UL50-53 inh -25, Sa growth 42C 103 and Sa growth 42C second temp 103.
COc1ccc2oc(=O)cc(CN3CCCCC3)c2c1 was read as HCMV UL50-53 inh -36, Sa growth 42C 78, GIV-Gai inh 112 and Sa growth 42C second temp 80.

Looked up by compound from the entries so far, 5 records:
`CCn1c(=O)[nH]c2cc(C(=O)O)ccc2c1=O` gave HCMV UL50-53 inh 1, Sa growth 42C 83, GIV-Gai inh 99 and Sa growth 42C second temp 93.
CCOC(=O)c1sc(SC)c2c1CC(c1ccc(OC)cc1)CC2=O (centres undefined) was read as HCMV UL50-53 inh 29, Sa growth 42C 110, GIV-Gai inh 103 and Sa growth 42C second temp 97.
Screening CC(=O)Nc1cc(-c2nc(-c3cc4c(C)nn(-c5ccccc5)c4s3)no2)ccc1C returned HCMV UL50-53 inh 2 and GIV-Gai inh 108.
`CN(C(=O)Cn1c(=O)n(CC(=O)NCCc2ccccc2)c(=O)c2sccc21)C1CCCCC1` gave Sa growth 42C 91, GIV-Gai inh 99 and Sa growth 42C second temp 98.
For CCN1C(=O)c2cccc3c(NC(=O)c4cc(-c5cccs5)nc5ccccc45)ccc1c23 the results were HCMV UL50-53 inh -13 and GIV-Gai inh 102.
